Cruzain noTriton = qHTS Assay for Promiscuous and Specific Inhibitors of Cruzain (without detergent) | Cruzipain (Trypanosoma cruzi), P25779 | 200,000 tested, 2.3% active | Potency, µM, inactives show max response, negative = inhibition, usual class: inhibitors | purified cruzain, Z-FR-AMC fluorescence, no detergent | AID 1476, 2009;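 note: plate controls were enzyme without inhibitor for no effect and buffer without enzyme for full effect; nearly all actives have a fitted effect of over 40% in size; top concentration of the series not given in the record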
Target sequence (P25779 123-467 limits assumed): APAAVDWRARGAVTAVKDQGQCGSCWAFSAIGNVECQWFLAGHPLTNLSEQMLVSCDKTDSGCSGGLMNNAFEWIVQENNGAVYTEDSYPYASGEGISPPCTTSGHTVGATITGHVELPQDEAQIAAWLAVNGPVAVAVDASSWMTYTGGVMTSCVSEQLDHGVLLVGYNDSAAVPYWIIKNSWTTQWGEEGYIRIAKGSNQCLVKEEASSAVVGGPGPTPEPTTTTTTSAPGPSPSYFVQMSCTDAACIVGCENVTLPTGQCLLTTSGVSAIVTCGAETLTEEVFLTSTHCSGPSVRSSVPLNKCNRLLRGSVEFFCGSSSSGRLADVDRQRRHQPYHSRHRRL
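Detergent-free condition (0.00005% Triton X-100) in acetate buffer pH 5.5 with DTT. 1.5 nM enzyme and compound were pre-mixed 15 min, then 2 uM Z-FR-AMC substrate added; reaction progress from fluorescence change between first and third reads (60 s).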
MARV entry inh = qHTS for inhibitors of binding or entry into cells for Marburg Virus; Marburg virus pseudotyped entry inhibition, cell reporter; control for the full effect not named in the record; about a third of the inactives were read at about 46 µM; Potency, µM (highest dose often 37.8 µM), inactives show top-dose activity change, negative = inhibition, usual class: inhibitors; 300,000 tested, 1.8% active; AID 540276, 2011; active = well fitted inhibition curve with a large enough effect; inconclusive = small, poorly fitted or top-dose-only effect, or effect the other way; inactive = flat fitted curve, though single readings scatter; tested in HEK293 cells; about a fifth of its hits are not listed in these tables; note: % is set by controls: 0 for no effect and ±100 for the full control effect; luciferase read-out
2A StopGo = High Throughput Screening for Foot and Mouth Disease Virus Antivirals. human cells with a luciferase reporter of 2A StopGo recoding; control for the full effect not named in the record. Potency, µM (doses to about 57.9 µM), inactives show top-dose signal change, negative = less light. 410,000 tested, 1.2% active. AID 1159524, 2015; active = well fitted falling curve with a large enough effect; inconclusive = small, poorly fitted or top-dose-only effect; inactive = no such curve, though single readings can be large or run the other way; tested in HEK293T cells; note: % is set by controls: 0 for no effect and ±100 for the full control effect; nearly all actives have a fitted effect of over 45% in size; luciferase light after 4 h
SARS PLpro yeast = qHTS of Yeast-based Assay for SARS-CoV PLP | AID 485353, 2010 | 330,000 tested, 0.19% active | Potency, µM (series often up to 32.9 µM), for the others: top-dose activity, positive = growth rescue | S. cerevisiae expressing SARS-CoV PLpro, growth rescue; control for the full effect not named in the record; active means well fitted rising curve with a large enough effect; inconclusive means small, poorly fitted or top-dose-only effect; inactive means no such curve, though single readings can be large or run the other way; note: 0% is about no effect; nearly all actives have a fitted effect of over 55% in size; growth read by luminescence after 48 h
Cruzain inh Det = qHTS Assay for Promiscuous and Specific Inhibitors of Cruzain (with detergent); Cruzipain (Trypanosoma cruzi), P25779; AID 1478, 2009; purified cruzain, Z-FR-AMC fluorescence, 0.01% Triton; Potency, µM, for the others: max response, negative = inhibition, hits mostly inhibitors; 200,000 tested, 0.43% active;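 note: plate controls were neutral wells for no effect and buffer without enzyme for full effect; nearly all actives have a fitted effect of over 40% in size; top concentration of the series not given in the record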
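Purified cruzain (1.5 nM final) was preincubated with compounds for 15 min at room temperature in 100 mM sodium acetate pH 5.5, 5 mM DTT, 0.01% Triton X-100. Reaction started with 2 uM Z-FR-AMC; AMC fluorescence change over 60 s gave activity.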
NS1 function inh = qHTS Assay for Inhibitors of Influenza NS1 Protein Function; 270,000 tested, 0.4% active; Potency, µM (doses to about 46.1 µM), inactives show at the highest dose activity, positive = more growth; S. cerevisiae slowed by influenza A NS1, growth recovery by OD600; active means well fitted rising curve with a large enough effect; inconclusive means small, poorly fitted or top-dose-only effect; inactive means no such curve, though single readings can be large or run the other way; note: nearly all actives have a fitted effect of over 50% in size
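In this qHTS, NS1 from influenza A is expressed in budding yeast, where it slows growth. Cells are switched from glucose to 2% galactose medium (pH 6.0, -URA), treated with compound, and growth recovery is read at OD600.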
RE007 growth inh = qHTS Assay for Inhibitors of the HIV-1 protein Vpr | Potency, µM (titrated, usually from 92.2 µM), inactives show at the highest dose activity change, negative = less growth | AID 651644, 2012 | S. pombe RE007 Vpr strain, BacTiter-Glo ATP luminescence, 24 h; control for the full effect not named in the record | 360,000 tested, 0.21% active; active = well fitted falling curve with a large enough effect; inconclusive = small, poorly fitted or top-dose-only effect; inactive = no such curve, though single readings can be large or run the other way;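 note: % is set by controls: 0 for no effect and ±100 for the full control effect; nearly all actives have a fitted effect of over 50% in size; the assay follows cell death caused by Vpr and the record does not say whether a fall means rescue or toxicity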
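Fission yeast strain RE007, carrying one chromosomally integrated HIV-1 vpr copy, was seeded at OD 0.01 in PMG+AL medium with 23 nL pinned compound. After 24 h at 30 °C and 99% humidity, viability was read by BacTiter-Glo luminescence.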
LASV entry inh = qHTS for Inhibitors of binding or entry into cells for Lassa Virus; Lassa virus pseudotype entry inhibition, cell reporter; control for the full effect not named in the record; Potency, µM (titrated, usually from 37.9 µM), without a hit: at the top dose activity change, negative = inhibition, hits mostly inhibitors; 300,000 tested, 1.2% active; active means well fitted inhibition curve with a large enough effect; inconclusive means small, poorly fitted or top-dose-only effect, or effect the other way; inactive means flat fitted curve, though single readings scatter; tested in HEK293 cells; note: % is set by controls: 0 for no effect and ±100 for the full control effect; nearly all actives have a fitted effect of over 50% in size; luciferase read-out
* hit, by the source's call; u = inconclusive; x = not tested or not shown; & = joins results of further samples; [ ] = another dose, or the depositor's remark. Unless noted, calls come from the whole dose curve; as a rule, active = well fitted curve in the direction sought with a large enough effect; inconclusive = small, poorly fitted or top-dose-only effect, or another doubt; inactive = no such curve, though single readings can be large; an effect the other way counts as inactive or inconclusive. Potency is the fitted concentration of half-maximal effect. Not a hit list; overall some 4.5% were active at least once.

| molecule | Cruzain noTriton | MARV entry inh | 2A StopGo | SARS PLpro yeast | Cruzain inh Det | NS1 function inh | RE007 growth inh | LASV entry inh |
| --- | --- | --- | --- | --- | --- | --- | --- | --- |
| CN1CCN(C2CC(=O)N(Cc3ccc(N4CCCC4=O)cc3)C2=O)CC1 (centres undefined) | -9% | -3% | -11% | -2% | 0.4% | 0% | 2%[3.69 µM] | 3% |
| CC(=O)CCc1oc2ccc([N+](=O)[O-])cc2c1-c1ccc(C)o1 | x | -12%[46.1 µM] | -5% | -1% | x | -3% | -17% | 2% |
| COc1cc([N+](=O)[O-])cc(/C=N/NC(=O)C(O)(c2ccccc2)c2ccccc2)c1O | x | u | -7% | u | x | -17% | 10% | u |
| N#CC1=C(SCc2ccccc2)NC(=O)C(C#N)C12CCCC2 (centres undefined) | -2% | -22% | u | 5% | 4.4% | -6% | 6% | u |
| CCN1CCN(c2nc(N)c([N+](=O)[O-])c(Nc3cccc(C)c3)n2)CC1 | 5% | 8% | -27% | 3% | -6.7% | 9% | 5% | 17% |
| CCN(C(=O)CSc1ncn[nH]1)c1cccc2ccccc12 | 12% | 0% | 2% | 11% | 3.0% | 4% | 16% | 1% |
| Cn1cc(Cl)c(C(=O)NNC(=S)Nc2cccc(Cl)c2)n1 | x | u | 33%[activator] | -1% | x | 1% | 12% | 4% |
| C#CCn1cc(/C=N/NC(=O)c2cc3ccccc3o2)c2ccccc21 | -17% | u | 0% | 4% | -11% | 7% | -13% | u |
| CCCCC(=O)Nc1ccc2c(c1)nc1n2CCN(CCOC)C1 | x | x | -6% | 0% | x | 3% | 8% | x |
| Cc1ccc(CNC(=O)c2sc3ncnc(N(C)C4CCCCC4)c3c2C)cc1 | 13% | x | -24% | x | -4.7% | x | x | -10%[46.1 µM] |
| Cc1ccc2nsnc2c1S(=O)(=O)N(Cc1cc2cccc(C)c2[nH]c1=O)CC1CCCO1 (centres undefined) | 1% | u | -11% | -4% | 3.2% | -14% | -4% | -9% |
| CCOC(=O)Nc1nnc(Cc2ccc(Cl)c(Cl)c2)s1 | x | 6%[46.1 µM] | -10% | -1% | x | 2% | 18% | u |
| COc1ccc(S(=O)(=O)N[C@@H](C)C(=O)OCC(=O)Nc2cc3oc4ccccc4c3cc2OC)cc1 | -2% | u | 24% | 1% | -9.1% | -2% | 0% | 22% |
| NC(=O)c1cc2ccccc2oc1=NCc1ccccc1 | -5% | -15% | -12% | -18% | -3.2% | -48% | -3% | u |
| O=C(Cc1ccc(F)cc1)N(c1ccc(F)cc1)C1C=CS(=O)(=O)C1 (centres undefined) | 2% | 6% | x | 16% | 3.3% | u | 13% | 5% |
| Cc1ccc(C)c(C(=O)c2c(C)nc3sccn23)c1 | -6% | u | u | -12% | -4.7% | -72% | 10% | 2% |
| CCOC(=O)c1ccc(NC(=O)Cn2ncc3c(C)n(Cc4ccccc4F)c(C)c3c2=O)cc1 | 6% | 28%[46.1 µM] | -16% | x | -3.5% | x | x | 6%[46.1 µM] |
| CCOC(=O)C1(CCc2ccccc2)CCN(C(=O)C2CCOCC2)CC1 | x | 4%[46.1 µM] | 13% | 0% | x | 1% | 5% | -20% |
| CCOC(=O)Cn1ccc(O)c(Cc2ccc(Cl)cc2Cl)c1=O | 5% | -20% | -21% | 2% | 2.4% | -20% | 15% | 4% |
| N#Cc1c(N)nc2c(c1-c1cccc(O)c1)CCCCCC2 | 10% | -7% | x | u | -4.1% | -1% | -2% | u |

Overlap with the part before: 2 compounds; new compounds follow.
| molecule | Cruzain noTriton | MARV entry inh | 2A StopGo | SARS PLpro yeast | Cruzain inh Det | NS1 function inh | RE007 growth inh | LASV entry inh |
| --- | --- | --- | --- | --- | --- | --- | --- | --- |
| CCOC(=O)Cn1ccc(O)c(Cc2ccc(Cl)cc2Cl)c1=O | 5% | -20% | -21% | 2% | 2.4% | -20% | 15% | 4% |
| N#Cc1c(N)nc2c(c1-c1cccc(O)c1)CCCCCC2 | 10% | -7% | x | u | -4.1% | -1% | -2% | u |
| CCOC(=O)C1CCN(C(=O)c2cc3c(=O)n4ccccc4nc3s2)CC1 | x | x | 42%[activator] | -1% | x | -8% | 7% | x |
| Cc1ccc(OCC(=O)NCC(=O)OCc2cc(=O)n3nc(C)sc3n2)cc1 | -7% | x | -21% | x | -4.1% | x | x | 8%[46.1 µM] |
| Cc1ccc(NC(=O)C2CCN(S(=O)(=O)c3c(C)noc3/C=C/c3cccs3)CC2)cc1F | u | -5%[46.1 µM] | u | x | -1.7% | x | x | -22%[46.1 µM] |
| O=C(NCCc1ccccc1)c1cnc2sc(N3CCCCC3)nn2c1=O | -9% | x | -24% | x | -9.1% | x | x | 6%[46.1 µM] |
| O=[N+]([O-])c1cccc(-c2c[n+]3c(n2-c2ccccc2)SCC3)c1 | x | 9%[46.1 µM] | -11% | -7% | x | x | -24% | 1% |
| CC(C)Oc1cccc(C(=O)Nc2ccc(-c3nc4cc(Cl)cc(Cl)c4o3)cc2)c1 | 14% | x | u | x | 1.9% | x | x | 1%[46.1 µM] |
| Cc1nc2ccccc2n2c(-c3ccccc3)c3c(=O)n(C)c(=O)n(C)c3c12 | 5%&10% | 19%&19% | -28%&-15% | -1% | -1.3%&-2.2% | 9% | -15% | -30%[46.1 µM] |
| Cc1ccc2oc3c(c(=O)c2c1)C(c1ccc(F)cc1)N(CCCN1CCOCC1)C3=O (centres undefined) | -4% | 1% | x | -6% | 0.8% | 7% | x | x |
| CC1CCCC(C)N1S(=O)(=O)c1ccc(Cl)cc1 (centres undefined) | x | 10%[46.1 µM] | 37%[activator] | 0% | x | -7% | -2% | -19%[46.1 µM] |
| Cn1c(=O)c2c(ncn2CC(=O)N/N=C/C=C/c2ccccc2)n(C)c1=O | 1% | 1% | -7% | 10% | -3.9% | -10% | 13% | 15% |
| COC(=O)c1cc(OC)c(OC)cc1NC(=O)CN1CCCCC1 | 4% | u | 18% | 5% | -1.1% | 2% | 0% | 8% |
| O=S(=O)(Nc1ccc(F)c(C(F)(F)F)c1)c1ccc(N2CCCCS2(=O)=O)cc1 | 14% | x | 11% | x | -12% | x | x | -3%[46.1 µM] |
| COc1ccc(Cl)cc1NC(=O)CSc1nncn1-c1cccnc1 | 2% | -16% | -4% | -3% | 1.7% | -9% | 0% | 2% |
| N#CCC(=O)NCCCc1ccccc1 | -1% | 26% | -9% | 5% | -0.4% | -6% | 8% | 2% |
| Cc1ccc2nc(SCC(=O)NCC3CCCO3)c(C#N)cc2c1 (centres undefined) | -7% | 8% | -3% | 7% | 2.0% | 6% | 0% | 8% |
| COc1ccc(S(=O)Cc2ccc(C(=O)N3CCN(c4cccc(C)c4C)CC3)o2)cc1 (centres undefined) | 12% | x | u | u | -2.0% | -19% | -13% | -6%[46.1 µM] |
| CCOc1ccc(C2CC(=O)c3c([nH]c(C(=O)OC4CCC(C)CC4)c3C)C2)cc1 (centres undefined) | -3% | 2%[46.1 µM] | -18% | x | -1.5% | x | x | -5%[46.1 µM] |
| CNC(=O)/C(C#N)=C/c1cn(CC(=O)OC)c2ccccc12 | x | 1%[46.1 µM] | 6% | -1% | x | 5% | -12% | -2% |
| COc1ccc(OCc2cc(C(=O)N3CCCN(C(C)=O)CC3)no2)c(Cl)c1 | x | x | 2% | 1% | x | -3% | -1% | x |
| Cn1nnc(NC(=O)CSc2ncn[nH]2)n1 | 2% | 7% | 4% | 0% | 8.2% | 1% | 9% | 13% |
| N#CCSc1nc2sc3c(c2c(=O)n1C1CCCCC1)CCCC3 | u | -13%&-13% | -28% | -3% | 4.0% | 6% | 14% | 4% |
| O=S(=O)(c1ccccc1)N(CC(O)Cn1c2ccccc2c2ccccc21)c1ccccc1 (centres undefined) | u | u | u | -3% | 34%[activator] | 22% | -9% | u |
| COc1ccc(C2NC(c3ccc(OC)cc3)C([N+](=O)[O-])C(C)(C)C2[N+](=O)[O-])cc1 (centres undefined) | x | x | -17% | 0% | x | 15% | 2% | x |
| CCOC(=O)C1CN(S(=O)(=O)c2ccc(OC)cc2)c2cc(Cl)ccc2O1 (centres undefined) | x | u | -14% | -3% | x | -3% | 5% | -15%[46.1 µM] |
| O=C(CSc1nnc2c(n1)[nH]c1ccccc12)N1CCCCC1 | x | -8%[46.1 µM] | -13% | 2% | x | -2% | -8% | -21%[46.1 µM] |
| COC(=O)c1cn(Cc2cccc(C)c2)nn1 | 4% | u | -4% | -4% | -1.6% | -15% | 22% | -18% |
| O=C(Nc1ccc(OCC(=O)N2CCOCC2)cc1)c1cncc(Br)c1 | -7% | -3% | 1% | -2% | -1.6% | -4% | 1% | 0% |
| CCOC(=O)C(=O)Nc1ccccc1C(=O)Nc1ccc(OC)cc1 | -11% | 5% | 24% | 7% | 5.4% | 8% | 5% | 10% |
| CCc1ccc(OCCSc2nc3ccccc3n2CC(=O)O)cc1 | x | x | 9% | 1% | x | 11% | 1% | x |
| Cc1cccc(-n2c(C)nc3sccc3c2=O)c1 | -12% | -17% | -12% | 4% | 3.4% | -6% | 4% | 19% |
| CSc1nc2n(n1)C(C)C1=C(CCCC1=O)N2 (centres undefined) | x | -15%[46.1 µM] | 23% | -1% | x | x | 1% | 16% |
| CC(=O)c1ccc(NC(=O)CCc2c(C)nc3cc(-c4ccc(Cl)cc4)nn3c2C)cc1 | -5% | -3%[46.1 µM] | u | x | -0.9% | x | x | 7%[46.1 µM] |
| O=C(NCCc1ccccc1)c1cccc([N+](=O)[O-])c1 | -12% | u | 23% | 6% | -1.6% | -10% | 4% | 4% |
| CCN(CC)CCCNC(=O)CN1C(=O)COc2ccc(S(=O)(=O)N3CCC(C)CC3)cc21 | -4% | -6%[46.1 µM] | -5% | x | -0.1% | x | x | 4%[46.1 µM] |

Bioassay records from PubChem.
